Screening results deposited in PubChem BioAssay by National Center for Advancing Translational Sciences (NCATS).
Lassa entry inh: qHTS for Inhibitors of binding or entry into cells for Lassa Virus; Lassa virus pseudotype entry inhibition, cell reporter; control for the full effect not named in the record; Potency, µM (doses to about 37.9 µM), without a hit: top-dose activity change, negative = inhibition, most hits filed as inhibitors; 300,000 tested, 1.2% active; AID 540256, 2011; active means well fitted inhibition curve with a large enough effect; inconclusive means small, poorly fitted or top-dose-only effect, or effect the other way; inactive means flat fitted curve, though single readings scatter; tested in HEK293 cells; note: % is set by controls: 0 for no effect and ±100 for the full control effect; nearly all actives have a fitted effect of over 50% in size; luciferase read-out
SARS PLP yeast: qHTS of Yeast-based Assay for SARS-CoV PLP; S. cerevisiae expressing SARS-CoV PLpro, growth rescue; control for the full effect not named in the record; Potency, µM (series often up to 32.9 µM), inactives show top-dose activity, positive = growth rescue; 330,000 tested, 0.19% active; active means well fitted rising curve with a large enough effect; inconclusive means small, poorly fitted or top-dose-only effect; inactive means no such curve, though single readings can be large or run the other way; note: 0% is about no effect; nearly all actives have a fitted effect of over 55% in size; growth read by luminescence after 48 h
NS1 function inh: qHTS Assay for Inhibitors of Influenza NS1 Protein Function; S. cerevisiae slowed by influenza A NS1, growth recovery by OD600; Potency, µM (series often up to 46.1 µM), inactives show at the highest dose activity, positive = more growth; 270,000 tested, 0.4% active; AID 2326, 2010; active means well fitted rising curve with a large enough effect; inconclusive means small, poorly fitted or top-dose-only effect; inactive means no such curve, though single readings can be large or run the other way; note: nearly all actives have a fitted effect of over 50% in size
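Recovery from NS1-induced slow growth read by OD600 in budding yeast switched to galactose assay medium (pH 6.0, -URA) at 1:100 dilution. Compound 23 nl per well; the matching strain lacking NS1 serves as control.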
Cruzain inh noDet: qHTS Assay for Promiscuous and Specific Inhibitors of Cruzain (without detergent). Potency, µM, for the others: max response, negative = inhibition, usual class: inhibitors. Cruzipain (Trypanosoma cruzi), P25779. 200,000 tested, 2.3% active. AID 1476, 2009. purified cruzain, Z-FR-AMC fluorescence, no detergent;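 note: plate controls were enzyme without inhibitor for no effect and buffer without enzyme for full effect; nearly all actives have a fitted effect of over 40% in size; top concentration of the series not given in the record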
Target sequence (P25779 123-467 limits assumed): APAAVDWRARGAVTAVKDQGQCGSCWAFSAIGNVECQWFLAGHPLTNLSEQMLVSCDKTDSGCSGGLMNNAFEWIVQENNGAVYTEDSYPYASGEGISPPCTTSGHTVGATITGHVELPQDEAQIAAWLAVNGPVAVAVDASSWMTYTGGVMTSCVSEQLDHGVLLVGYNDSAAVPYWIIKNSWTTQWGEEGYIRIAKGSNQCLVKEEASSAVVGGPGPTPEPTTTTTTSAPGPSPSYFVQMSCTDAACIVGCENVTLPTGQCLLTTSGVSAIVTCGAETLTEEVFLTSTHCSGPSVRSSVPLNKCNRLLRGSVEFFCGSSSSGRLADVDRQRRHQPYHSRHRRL
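Detergent-free condition (0.00005% Triton X-100) in acetate buffer pH 5.5 with DTT. 1.5 nM enzyme and compound were pre-mixed 15 min, then 2 uM Z-FR-AMC substrate added; reaction progress from fluorescence change between first and third reads (60 s).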
Cruzain Triton: qHTS Assay for Promiscuous and Specific Inhibitors of Cruzain (with detergent) | Cruzipain (Trypanosoma cruzi), P25779 | purified cruzain, Z-FR-AMC fluorescence, 0.01% Triton | Potency, µM, for inactives: max response, negative = inhibition, most hits filed as inhibitors | 200,000 tested, 0.43% active;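 note: plate controls were neutral wells for no effect and buffer without enzyme for full effect; nearly all actives have a fitted effect of over 40% in size; top concentration of the series not given in the record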
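Cruzain (1.5 nM) preincubated 15 min at RT with compound in 100 mM sodium acetate pH 5.5, 5 mM DTT, 0.01% Triton X-100. Reaction started with 2 uM Z-FR-AMC; AMC fluorescence (ex 360/em 450 nm) change over 60 s gave rate.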
RE007 growth inh: qHTS Assay for Inhibitors of the HIV-1 protein Vpr. S. pombe RE007 Vpr strain, BacTiter-Glo ATP luminescence, 24 h; control for the full effect not named in the record. Potency, µM (doses to about 92.2 µM), for inactives: at the highest dose activity change, negative = less growth. 360,000 tested, 0.21% active; active = well fitted falling curve with a large enough effect; inconclusive = small, poorly fitted or top-dose-only effect; inactive = no such curve, though single readings can be large or run the other way;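 note: % is set by controls: 0 for no effect and ±100 for the full control effect; nearly all actives have a fitted effect of over 50% in size; the assay follows cell death caused by Vpr and the record does not say whether a fall means rescue or toxicity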
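Fission yeast RE007 carrying one integrated HIV-1 vpr copy, seeded at OD 0.01 in PMG+AL medium with 23 nL pinned compound. Grown 24 h at 30 degrees; viability read by BacTiter-Glo luminescence after 5 min.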
Marburg entry inh: qHTS for inhibitors of binding or entry into cells for Marburg Virus; 300,000 tested, 1.8% active; Potency, µM (titrated, usually from 37.8 µM), for inactives: at the top dose activity change, negative = inhibition, hits mostly inhibitors; AID 540276, 2011; Marburg virus pseudotyped entry inhibition, cell reporter; control for the full effect not named in the record; about a third of the inactives were read at about 46 µM; active = well fitted inhibition curve with a large enough effect; inconclusive = small, poorly fitted or top-dose-only effect, or effect the other way; inactive = flat fitted curve, though single readings scatter; tested in HEK293 cells; about a fifth of its hits are not listed in these tables; note: % is set by controls: 0 for no effect and ±100 for the full control effect; luciferase read-out
2A StopGo: High Throughput Screening for Foot and Mouth Disease Virus Antivirals; human cells with a luciferase reporter of 2A StopGo recoding; control for the full effect not named in the record; Potency, µM (titrated, usually from 57.9 µM), for the others: top-dose signal change, negative = less light; 410,000 tested, 1.2% active; AID 1159524, 2015; active = well fitted falling curve with a large enough effect; inconclusive = small, poorly fitted or top-dose-only effect; inactive = no such curve, though single readings can be large or run the other way; tested in HEK293T cells; note: % is set by controls: 0 for no effect and ±100 for the full control effect; nearly all actives have a fitted effect of over 45% in size; luciferase light after 4 h
* hit, by the source's call; ? = inconclusive; . = no result given; & = joins results of further samples; [ ] = remark or other dose. Unless noted, calls come from the whole dose curve; as a rule, active = well fitted curve in the direction sought with a large enough effect; inconclusive = small, poorly fitted or top-dose-only effect, or another doubt; inactive = no such curve, though single readings can be large; an effect the other way counts as inactive or inconclusive. Potency is the fitted concentration of half-maximal effect.

No. | Compound | Lassa entry inh | SARS PLP yeast | NS1 function inh | Cruzain inh noDet
1 | Nc1ccc2cc3[nH]c4cc(N)ccc4c3nc2c1 | ? | . | . | .
2 | O=C(CSc1nnc(CN2CCCCC2)n1-c1ccccc1)c1ccc2c(c1)OCO2 | ? | 5% | -3% | 2%
3 | O=c1[nH]c2cc3c(cc2cc1CN(Cc1ccco1)C(=S)NCC1CCCO1)OCCO3 (stereo unspecified) | ? | 0% | 2% | .
4 | C=CCOc1c(Br)cc(/C=N/NC(N)=O)cc1OC | 1% | 22% | 0% | 7%
5 | Cc1ccc(C(=O)Nc2ccc(Br)cc2)cc1S(=O)(=O)NCc1ccccc1 | ? | . | . | 7%
6 | Cc1occc1-c1nnc(SCC(=O)N(C)c2ccccc2)o1 | 26% | 2% | . | .
7 | CCOC(=O)N1CCN(C(=O)c2cccc(S(=O)(=O)Nc3ccc(OC)cc3)c2)CC1 | -6% | -3% | . | .
8 | COC(=O)CNS(=O)(=O)c1ccc(OC)cc1 | 22% | -6% | -2% | -1%
9 | CC(CNC(=O)c1ccc(OC2CCN(Cc3ccccn3)CC2)cc1)Oc1cccnc1 (stereo unspecified) | 1% | 2% | 16% | .
10 | COc1cc(NC(=O)c2ccc3c(=O)n(Cc4ccco4)c(=S)[nH]c3c2)cc(OC)c1OC | -21% | -1% | 4% | 0%
11 | CCCCCn1c(N)c(C(=O)NCc2cccs2)c2nc3ccccc3nc21 | 0% | -3% | 8% | 4%
12 | CC1CC(C)CN(S(=O)(=O)c2ccc(C(=O)NCc3ccco3)cc2)C1 (stereo unspecified) | ? | -1% | . | .
13 | CCOC(=O)c1c(-c2ccc(C)cc2C)csc1NC(=O)CSc1nnnn1C | ? | -9% | -34% | 22%
14 | COc1ccc(F)cc1S(=O)(=O)NCC(c1ccco1)S(=O)(=O)c1cccs1 (stereo unspecified) | -6%[46.1 µM] | . | . | 8%
15 | COc1ccc(NC(=O)CSc2ncnc3c2nnn3-c2ccc(F)cc2)c(OC)c1 | 3%[46.1 µM] | 1% | . | .

No. | Cruzain Triton | RE007 growth inh | Marburg entry inh | 2A StopGo
1 | . | ? | ? | -19%
2 | -6.2% | -8% | 4% | 3%
3 | . | 17% | ? | -4%
4 | -3.5% | 0% | 8% | -14%
5 | -7.1% | . | . | -24%
6 | . | 3% | -13% | -1%
7 | . | -14% | -7% | -6%
8 | 3.8% | 8% | 4% | 39%[activator]
9 | . | 9% | -6% | 0%
10 | -2.7% | 3% | ? | -22%
11 | 0.2% | -3% | ? | 1%
12 | . | -15% | -8%[46.1 µM] | -13%
13 | -5.1% | 15% | ? | .
14 | -2.4% | . | . | 80%[activator]
15 | . | 10% | ? | -6%

Remaining list, next part
No. | Compound | Lassa entry inh | SARS PLP yeast | NS1 function inh | Cruzain inh noDet
16 | COc1ccc(NC(=O)CSCC(=O)Nc2ccc(C)c(S(=O)(=O)N3CCCCCC3)c2)cc1 | -6% | 3% | . | .
17 | COC(=O)c1ccc2c(C)c(C(C)(C)O)[nH]c2c1 | . | 1% | -22% | .
18 | O=C(N/N=C\c1ccccc1)c1sccc1-n1cccc1 | 11% | -4% | -14% | -7%
19 | CCSc1nc(-c2ccco2)ccc1C#N | 0% | 4% | -46% | 3%
20 | O=C(/C(=N/N=C/c1ccc(O)c(O)c1)c1ccccc1)c1ccccc1 | ? | -56% | -7% | -8%
21 | N#CC1=C(N)Oc2cc(O)ccc2C1c1ccc2c(c1)OCO2 (stereo unspecified) | -6%[46.1 µM] | 0% | 7% | .
22 | O=S(=O)(c1ccc(Cl)cc1)c1nnn2c1nc(NCc1ccccc1)c1sccc12 | 1%[46.1 µM] | . | . | 14%
23 | CC1C/C(=N\NC(=O)c2cccnc2)CC(C)(C)C1 (stereo unspecified) | 6% | 0% | . | .
24 | O=C(CNC(=O)c1ccc(Br)o1)NCc1ccc(Cl)cc1Cl | -1% | 0% | 7% | .
25 | COc1cc(S(C)=O)ccc1-c1nc2ncccc2[nH]1 (stereo unspecified) | . | . | . | -4%&-25%
26 | O=C(NNC(=O)c1cccc(S(=O)(=O)N2CCc3ccccc32)c1)c1ccccc1 | ? | 3% | . | .
27 | O=C(CN(Cc1ccc2c(c1)OCO2)C(=O)CSc1nc2ccccc2o1)NC1CCCCC1 | 0% | 2% | 3% | 4%
28 | O=C(O)c1ccc2c(c1)C(=O)N(c1ccc([N+](=O)[O-])cn1)C2=O | 17% | -8% | -5% | .
29 | CCOc1ccc(Nc2ccc(C(=O)O)cc2[N+](=O)[O-])cc1 | . | -4% | -61% | .
30 | COc1cccc(Cn2c(=O)cc(C)c3c(C)nn(C)c32)c1 | ? | . | . | ?

No. | Cruzain Triton | RE007 growth inh | Marburg entry inh | 2A StopGo
16 | . | -2% | ? | -13%
17 | . | -18% | . | 0%
18 | -1.8% | 0% | 29% | 0%
19 | -19% | 8% | 14% | 0%
20 | -15% | 1% | ? | -23%
21 | . | -6% | 15%[46.1 µM] | 5%
22 | 1.1% | . | . | -21%
23 | . | 5% | 4% | 3%
24 | . | 7% | 0% | 56%[activator]
25 | -3.5%&-18% | 8%[18.4 µM] | . | -10%&13%
26 | . | 4% | ? | 0%
27 | -0.9% | -3% | 19%&19% | 33%[activator]
28 | . | 5% | 10% | -7%
29 | . | 7% | . | 10%
30 | -7.5% | . | . | ?

The closing three records of the part before lead into the next:
No. | Compound | Lassa entry inh | SARS PLP yeast | NS1 function inh | Cruzain inh noDet
28 | O=C(O)c1ccc2c(c1)C(=O)N(c1ccc([N+](=O)[O-])cn1)C2=O | 17% | -8% | -5% | .
29 | CCOc1ccc(Nc2ccc(C(=O)O)cc2[N+](=O)[O-])cc1 | . | -4% | -61% | .
30 | COc1cccc(Cn2c(=O)cc(C)c3c(C)nn(C)c32)c1 | ? | . | . | ?
31 | CC1CN(S(=O)(=O)c2ccccc2)C(C)N1C(=O)N1CCOCC1 (stereo unspecified) | -7% | -6% | 13% | .
32 | O=C(Cc1cccs1)N(c1ccc(Br)cc1)C1C=CS(=O)(=O)C1 (stereo unspecified) | 4% | 0% | . | .
33 | CCOC(=O)C1(CCCc2ccccc2)CCN(C(=O)Cc2nonc2C)CC1 | ? | -1% | -4% | .
34 | CC1CC1C(=O)OCC(=O)NC(=O)NCc1ccco1 (stereo unspecified) | -23% | -6% | -4% | -9%
35 | COCCCNC(=O)N1[C@H](c2cccs2)[C@@H](C)C(=O)[C@@H](C)[C@@H]1c1cccs1 | 0%[46.1 µM] | . | . | -1%
36 | O=C(NCCN1CCOCC1)c1c[nH]c2ccc(S(=O)(=O)N3CCOCC3)cc2c1=O | -3% | -2% | 23% | 1%
37 | Cc1cc(C(=O)N/N=C/c2ccc(-c3ccc([N+](=O)[O-])cc3Cl)o2)n[nH]1 | . | -26% | -25% | .
38 | CCOc1cc2[nH]c(=O)n(CCC(=O)N3CCN(c4ccccc4)CC3)c(=O)c2cc1OCC | 15%[46.1 µM] | . | . | 13%
39 | O=C(CCNS(=O)(=O)c1ccc(Br)cc1)NC1CCCCC1 | 29%[46.1 µM] | -1% | . | .
40 | FC(F)(F)c1ccc(C2[C@H]3CN(Cc4cccnc4)[C@H](c4ccccc4)C34CC2(c2ccccc2)C4)cc1 (stereo partly specified) | . | -4% | 18% | -3%
41 | Cn1c(=O)[nH]c(=O)c2c1nc(N1CCNCC1)n2CCOc1ccccc1 | 3% | . | 3% | .
42 | CCn1ccnc1CN(C)C(=O)c1cc(COc2ccc(Cl)cc2OC)on1 | . | 4% | 4% | .
43 | Cc1cccc(OCc2nnc(SC(C)C(=O)O)n2Cc2ccccc2)c1 (stereo unspecified) | 22%[46.1 µM] | 0% | 3% | .
44 | CC1CCCN(S(=O)(=O)c2ccc(-c3ccc(=O)[nH]n3)o2)C1 (stereo unspecified) | . | 2% | 7% | .
45 | Cn1cc(/C=C(\NC(=O)c2ccccc2)C(=O)NCCCN2CCOCC2)c2ccccc21 | . | 26% | 1% | .
46 | CC(Sc1ccc(Cl)cc1)C(=O)Nc1ccccc1C(=O)N1CCOCC1 (stereo unspecified) | -3% | 1% | 1% | -1%
47 | COc1ccc(-c2noc(-c3ccc(NCc4ccco4)c([N+](=O)[O-])c3)n2)cc1 | 0%[46.1 µM] | . | . | 3%
48 | CC(C)(c1ccccc1)c1ccc(OCCCN2CCNCC2)cc1 | ? | 1% | -3% | .

No. | Cruzain Triton | RE007 growth inh | Marburg entry inh | 2A StopGo
28 | . | 5% | 10% | -7%
29 | . | 7% | . | 10%
30 | -7.5% | . | . | ?
31 | . | -2% | 19%[46.1 µM] | 5%
32 | . | 14% | -15%[46.1 µM] | -1%
33 | . | 2% | 3%[46.1 µM] | -21%
34 | 1.6% | 8% | -10% | 6%
35 | -4.1% | . | 1%[46.1 µM] | 8%
36 | -2.6% | -2% | -14% | -10%
37 | . | -14% | . | ?
38 | 2.9% | . | . | -21%
39 | . | 6% | 9%[46.1 µM] | 13%
40 | -3.3% | 6% | . | 0%
41 | . | 12% | -2% | -28%
42 | . | 3% | . | 21%
43 | . | 8% | ? | 5%
44 | . | -3% | . | -9%
45 | . | 7% | . | -11%
46 | 1.1% | 4% | 17% | -25%
47 | -2.4% | . | ? | -13%
48 | . | 5% | ? | 0%

The order is random, and some 4.7% of all compounds hit somewhere here.
